VACV Venus inh: qHTS for Stage-Specific Inhibitors of Vaccinia Orthopoxvirus: Venus Reporter Primary qHTS; Vaccinia virus Venus reporter expression, fluorescence; Potency, µM (series often up to 36.5 µM), without a hit: at the highest dose activity change, negative = inhibition, actives largely listed as inhibitors; actives 0.46% (n = 330,000); AID 720580, 2013; active means well fitted inhibition curve with a large enough effect; inconclusive means small, poorly fitted or top-dose-only effect; inactive means no such curve, though single readings can be large or run the other way; tested in A549 cells; further: nearly all actives have a fitted effect of over 30% in size; inactives centre near -10
VACV mCherry inh: qHTS for Stage-Specific Inhibitors of Vaccinia Orthopoxvirus: mCherry Reporter Primary qHTS; Vaccinia virus mCherry reporter infection, fluorescence; about a quarter of the inactives have no number; Potency, µM (highest dose often 36.5 µM), for inactives: at the highest dose activity change, negative = inhibition, hits mostly inhibitors; actives 0.63% (n = 310,000); AID 720579, 2013; active = well fitted inhibition curve with a large enough effect; inconclusive = small, poorly fitted or top-dose-only effect; inactive = no such curve, though single readings can be large or run the other way; tested in A549 cells; further: nearly all actives have a fitted effect of over 35% in size; inactives centre near -10
* marks the source's active call; other numbers are inactive results; i = inactive; ? = inconclusive; nt = not tested or not shown; [ ] = another dose, or the depositor's remark. On the % scale 0 is the no-effect control and ±100 the full control effect; potency means the concentration at half of the fitted maximal effect.

SMILES	VACV Venus inh	VACV mCherry inh
Cc1nnsc1C(=O)N1CCCC1(C)C(=O)O (configuration not stated)	-2.1%	27.3%
O=Cc1ccc(Cl)c(Cl)c1	-11.5%	i
COc1cccc(NC(=O)C(Cc2ccccc2)NS(=O)(=O)c2ccc3c(c2)c(=O)n(C)c(=O)n3C)c1 (configuration not stated)	-4.0%	i
Cc1cccc2cc(CN(CCN3CCOCC3)C(=O)NCc3ccccc3)c(=O)[nH]c12	-10.0%	-14.1%[1.46 µM]
O=C(O)c1ccc2c(c1)C(=O)N(CCC1=CCCCC1)C2=O	3.7%	nt
COC(=O)c1ccccc1C(=O)N1CCc2c(cnc(C)c2CNC(=O)c2ccccc2F)C1	-5.2%	-11.1%
Cc1ccccc1NC(=O)Nc1cc(-c2ccccc2)nn1C	-13.4%	-26.4%
O=C(COc1ccc(Cl)cc1)NCc1nnc(SCC(=O)Nc2ccc3c(c2)OCCO3)o1	2.3%	-1.0%
Cc1ccc(-n2c(CNc3ccc(F)cc3)nnc2SCC(=O)O)cc1	-0.5%	i
Cc1cccc(C)c1Nc1nnc(SCC(=O)NCc2ccco2)s1	-3.7%	-8.4%
COc1ccc(NC(=O)N2CCC(n3c(C)nc4cccnc43)CC2)cc1OC	12.4%	0.3%
CN(CC(=O)NC1(C)CCS(=O)(=O)C1)S(=O)(=O)c1ccc(Cl)cc1 (configuration not stated)	-12.8%	-19.8%
C=CCc1cccc2cc(-c3nc4ccc(C)cc4[nH]3)c(=O)oc12	?	?
CC(C)=C(NC(=O)c1ccccc1)C(=O)Nc1cccc(C(=O)O)c1	-5.1%	-7.2%
COc1ccc(C(c2c(O)nc[nH]c2=O)c2c(O)nc[nH]c2=O)cc1	-2.9%	24.4%
COc1cccc(/C=C/c2ccnc3ccccc23)c1OC	-10.9%	-20.0%
C[C@@H]1CN([C@@H](C)CO)C(=O)CCCn2nncc2CO[C@H]1CN(C)Cc1ccccc1C(F)(F)F	-25.7%	-18.0%
CSc1ncccc1C(=O)OCC(=O)c1cc(C)n(CC2CCCO2)c1C (configuration not stated)	-3.6%	i
O=C(N/N=C\c1cccc(F)c1)c1ccc(-c2ccccc2)cc1	-6.5%	i
CCCC(C(=O)O)N1C(=O)/C(=C2\C(=O)N(C)c3ccccc32)SC1=S (configuration not stated)	-11.4%	-7.2%
Cc1ccc(-n2nc(C)c3nc(CCC(=O)Nc4ccc(F)cc4)c(=O)n(C)c32)cc1	3.6%	-7.0%
Cn1c2c(c(=O)n(C)c1=O)C(c1cc3c(cc1Br)OCO3)CC(=O)N2 (configuration not stated)	-0.1%	i
C[C@]12CCC3C(C(=O)C[C@H]4C[C@@H](O)CC[C@]34C)C1CCC2=O (some centres not stated)	-16.6%	-2.6%
CCOc1ccc(CC(=O)N2CCc3cc(OC)c(OC)cc3C2COc2ccc3c(C)cc(=O)oc3c2)cc1 (configuration not stated)	2.0%	-6.9%
O=C(CCn1nnnc1CN1CCOCC1)N1CCC(c2ccccc2Cl)C1 (configuration not stated)	-5.0%	-11.2%

15 consecutive compounds out of the list so far:
SMILES	VACV Venus inh	VACV mCherry inh
COc1ccc(NC(=O)N2CCC(n3c(C)nc4cccnc43)CC2)cc1OC	12.4%	0.3%
CN(CC(=O)NC1(C)CCS(=O)(=O)C1)S(=O)(=O)c1ccc(Cl)cc1 (configuration not stated)	-12.8%	-19.8%
C=CCc1cccc2cc(-c3nc4ccc(C)cc4[nH]3)c(=O)oc12	?	?
CC(C)=C(NC(=O)c1ccccc1)C(=O)Nc1cccc(C(=O)O)c1	-5.1%	-7.2%
COc1ccc(C(c2c(O)nc[nH]c2=O)c2c(O)nc[nH]c2=O)cc1	-2.9%	24.4%
COc1cccc(/C=C/c2ccnc3ccccc23)c1OC	-10.9%	-20.0%
C[C@@H]1CN([C@@H](C)CO)C(=O)CCCn2nncc2CO[C@H]1CN(C)Cc1ccccc1C(F)(F)F	-25.7%	-18.0%
CSc1ncccc1C(=O)OCC(=O)c1cc(C)n(CC2CCCO2)c1C (configuration not stated)	-3.6%	i
O=C(N/N=C\c1cccc(F)c1)c1ccc(-c2ccccc2)cc1	-6.5%	i
CCCC(C(=O)O)N1C(=O)/C(=C2\C(=O)N(C)c3ccccc32)SC1=S (configuration not stated)	-11.4%	-7.2%
Cc1ccc(-n2nc(C)c3nc(CCC(=O)Nc4ccc(F)cc4)c(=O)n(C)c32)cc1	3.6%	-7.0%
Cn1c2c(c(=O)n(C)c1=O)C(c1cc3c(cc1Br)OCO3)CC(=O)N2 (configuration not stated)	-0.1%	i
C[C@]12CCC3C(C(=O)C[C@H]4C[C@@H](O)CC[C@]34C)C1CCC2=O (some centres not stated)	-16.6%	-2.6%
CCOc1ccc(CC(=O)N2CCc3cc(OC)c(OC)cc3C2COc2ccc3c(C)cc(=O)oc3c2)cc1 (configuration not stated)	2.0%	-6.9%
O=C(CCn1nnnc1CN1CCOCC1)N1CCC(c2ccccc2Cl)C1 (configuration not stated)	-5.0%	-11.2%

Next entries.
SMILES	VACV Venus inh	VACV mCherry inh
COC(=O)c1c(C)[nH]c(C=O)c1-c1ccccc1	-7.1%	i
O=C1CN(c2nc(-c3cccs3)nc3sc4c(c23)CCCC4)CCN1	?	-21.8%
O=C(CCN1C(=O)c2ccccc2C1=O)N1CCN(Cc2ccccc2)CC1	-10.6%	-1.5%
COc1ccc2[nH]c(C)c(CCN3C(=O)C4CC=CCC4C3=O)c2c1 (configuration not stated)	-2.9%	-11.8%
COc1ccc(C(=O)NNC(=O)C2CCCO2)cc1 (configuration not stated)	3.4%	-10.3%
CCc1cc(C(=O)NCC2Cc3cc(-c4ccccc4C(C)=O)ccc3O2)no1 (configuration not stated)	-1.9%	-12.8%
CC(C)=CCC[C@H](C)C[C@@H]1CC2=C(C(=O)OC(C)(C)O2)[C@H](c2ccc(F)cc2)O1	6.5%	34.4%[activator]
Nc1c(Cl)cc(C(=O)NC2CC2)cc1Cl	-16.4%	i
C[C@H]1CCC/C=C/C2C[C@H](O)CC2[C@H](O)/C=C/C(=O)O1 (some centres not stated)	?	?
O=C(O)CCC1OC(=O)C(O)=C1c1ccccc1 (configuration not stated)	9.4%	1.5%
Cc1ccc(S(=O)(=O)N(C)C[C@@H]2Oc3ncc(Br)cc3C(=O)N([C@H](C)CO)C[C@@H]2C)cc1	-26.2%	-9.2%
Cc1nnc(NC(=O)c2c(-c3ccccc3Cl)noc2C)s1	-5.6%	-2.0%
O=C(NCCN1CCOCC1)c1ccc2c(c1)N(Cc1cccc(F)c1)C(=O)c1ccccc1S2	-16.1%	i
O=C(CSc1ccsc1[N+](=O)[O-])N1CCN(c2ccccn2)CC1	-11.3%	?
COc1ccccc1C1CCN(Cc2ccc(Cl)c(Cl)c2)CC1	-7.7%	-17.2%
NC(=O)c1cc([N+](=O)[O-])ccc1NCc1ccccn1	-8.9%	?
OCCCNc1ncnc2scc(-c3ccc(Cl)cc3)c12	-29.5%	?
C[C@H](NC(=O)c1nc[nH]c1C(=O)N1CCN(C(=O)OC(C)(C)C)CC1)C(=O)OCc1ccccc1	-3.2%	i
CCc1cccc(NC(=O)Cn2c(=O)n(CC3CCC(C(=O)NC)CC3)c(=O)c3sccc32)c1 (configuration not stated)	-16.3%	-10.4%
O=C(COC(=O)CNC(=O)c1ccc(Br)cc1)Nc1nnc(-c2ccccc2)o1	-10.5%	-10.4%
Cc1ccc(S(=O)(=O)Cc2ccc(C(=O)NCCc3ccc(Cl)cc3)o2)cc1	-8.8%	-14.8%
CC1CCCCC1NC(=O)NC(=O)COC(=O)c1ccc(OC(F)F)cc1 (configuration not stated)	1.9%	-4.9%
CCCCCC(=O)N1C[C@H](n2cc(COC(=O)c3ccccc3)nn2)[C@@H](O)C[C@@H]1c1ccc(Cl)cc1	-29.5%	i
CS(=O)(=O)c1ccc(-c2nnc(NC(=O)C3=COCCO3)o2)cc1	-6.2%	i
CC(C)Cn1c(SCC(=O)N2CCCc3ccccc32)nc2ccccc2c1=O	-9.9%	12.0%

(continued)
SMILES	VACV Venus inh	VACV mCherry inh
C[C@@H](CSc1ccc(Br)cc1)CN1CC[C@H](NC(=O)OCc2ccccc2)CCC1=O	?	-5.6%
CCOC(=O)C/C(C)=N\Nc1ccc([N+](=O)[O-])cc1[N+](=O)[O-]	-6.9%	?
CC(C(=O)O)N1CCCCC1 (configuration not stated)	0.0%	i
Cc1nc2c(c(C)nn2-c2ccccc2)c(C)c1CCC(=O)NCCc1ccc(Cl)cc1	2.6%	-0.3%
NC(=O)C1=CC2C3C=CC2(O)C(=O)OC3O1 (configuration not stated)	-13.9%	-10.9%
O=C(CSc1nc2ccccc2c2nc(-c3ccccc3)nn12)Nc1ccc(Br)cc1	1.8%	-4.7%
COc1ccccc1OCC(=O)c1[nH]c(C)c(C(C)=O)c1C	?	-15.4%
Cc1cc(C)c(S(=O)(=O)N2CCCC2=O)c(C)c1	-0.4%	-3.2%
O=C(Cn1c(=O)n(Cc2ccco2)c(=O)c2ccc(C(=O)NC3CCCC3)cc21)Nc1ccc(F)cc1	6.3%	18.7%
CCOc1ccccc1C(=O)N(C)Cc1cc2cc(OC)ccc2[nH]c1=O	-5.7%	i
COc1ccc(N2CCN(C(=O)C(=O)c3ccc(F)cc3)CC2)cc1	-16.5%	?
CC(=O)Nc1c(C(=O)O)ccc(C)c1OCc1ccccc1	-6.5%	-0.4%
CCOC(=O)C1CCN(Cc2ccc(Cl)nc2)CC1	-9.6%	-3.6%
Cc1ccc(-n2c(=O)c3oc4ccccc4c3n(Cc3ccccc3F)c2=O)cc1C	-2.9%	-9.3%
O=[N+]([O-])c1ccc(NCCCNS(=O)(=O)c2ccccc2)c(Cl)c1	-26.2%	-29.2%
COc1ccc(-c2c(C)nn3c(C(F)(F)F)cc(-c4ccc(C)cc4)nc23)cc1	-4.4%	-1.5%
O=S(=O)(c1cccc(F)c1)N1CCN(C(=S)NCc2ccccc2)CC1	-1.0%	-19.3%
C/C(O)=c1/c(=O)nc2cccc3c2=c1c1ccccc1c3=O	-13.0%	-0.1%
Cn1c(SCC(=O)NCC2CCCO2)nnc1-c1c[nH]c2ccccc12 (configuration not stated)	0.8%	i
CCC(C(=O)OC)n1cnc2c(cnn2-c2ccc(Cl)cc2)c1=O (configuration not stated)	-10.6%	i
O=C(COC(=O)/C=C/c1cccc([N+](=O)[O-])c1)NCc1ccco1	-2.5%	-3.3%
CC(=O)c1ccc2c(c1)CCN2	-9.1%	-3.4%
CC(=O)Nc1ccc(S(=O)(=O)c2ccc(N)cc2)cc1	-3.2%	-11.6%
COc1ccc(/C=N/NC(=S)NCC2CCCO2)cc1 (configuration not stated)	-18.9%	-11.0%
Cc1ccc(OC(=O)COc2ccccc2)c(-n2nc3ccccc3n2)c1	-12.1%	-15.7%

Continuation:
SMILES	VACV Venus inh	VACV mCherry inh
Cc1cccc2cc(C#N)c(NCCNC(=O)c3ccccc3)nc12	-12.5%	i
Cc1ccc(SCc2ccc(C(=O)NCc3cccnc3)cc2)cc1	-14.4%	-2.7%
N#Cc1c(Cl)nsc1NCCN1CCOCC1	-9.2%	i
COC(=O)[C@@]12C[C@@H](CC(=O)N3CCN(C(=O)c4ccco4)CC3)C(=O)N(Cc3ccco3)C1=CCC(C)(C)C2	-26.6%	-14.3%
CCN1C(=O)C(CC(=O)Nc2ccc(F)cc2)N(Cc2ccco2)C1=S (configuration not stated)	5.2%	i
CC(=O)NC(CC(=O)Nc1ccc(S(=O)(=O)Nc2nccs2)cc1)c1ccccc1 (configuration not stated)	3.3%	-6.8%
COc1cccc(-c2cc3nc4c(c(N5CCC6(CC5)OCCO6)n3n2)CCCC4)c1	-19.2%	-13.6%
Cc1ccc(OCCC(=O)OCC(=O)Nc2ccc(C)cc2Cl)cc1	-15.0%	-3.2%
COCCCNC(=O)CN1C(=O)CSc2ccc(S(=O)(=O)N3CCOCC3)cc21	-2.9%	i
CN1CCN(c2ccc([N+](=O)[O-])cc2/C=N/NC(=O)c2ccc(F)cc2)CC1	-19.0%	-14.6%
COc1cccc(C(=O)COC(=O)C(C)N2C(=O)c3ccccc3C2=O)c1 (configuration not stated)	-7.2%	-13.7%
COCCN1C(=O)N[C@@H](c2cccc(C(F)(F)F)c2)[C@H](C(=O)OC)[C@H]1C	-14.1%	i
O=C(Nc1ccccc1)C1=C[C@@H](c2coc3ccccc3c2=O)C[C@@H](OCc2ccc(CO)cc2)O1	-6.5%	-8.7%
COc1ccccc1C1C(C#N)=C(N)Oc2c1c(-c1ccccc1)nn2-c1ccccc1 (configuration not stated)	-7.5%	-22.6%
O=c1c2ccccc2nc2n1C(CSCc1ccccc1)CS2 (configuration not stated)	?	nt
COc1ccc(N2CCN(c3nc4c(c(=O)n(C)c(=O)n4C)n3CCCc3ccccc3)CC2)cc1	-16.8%	nt
Cc1ccc(S(=O)(=O)Cc2ccc(C(=O)N3CCN(c4cccc(Cl)c4)CC3)o2)cc1	-22.4%	?
Cc1noc(C)c1COC(=O)CN(C)S(=O)(=O)c1ccc(Cl)cc1	-17.0%	i
O=C(c1ccc(Cl)c(S(=O)(=O)N2CCOCC2)c1)N1CCCCCC1	0.9%	1.3%
CC(C)(C)c1ccc(-c2noc(-c3ccno3)n2)cc1	-17.1%	-10.3%
O=C1CN(S(=O)(=O)c2cccc(Cl)c2Cl)CCN1	-15.5%	i
CC(Cc1ccccc1)N1CCCC1=O (configuration not stated)	2.3%	-12.9%
CC1(C)CC(NS(=O)(=O)c2ccc(C(C)(C)C)cc2)CC(C)(C)N1	-29.2%	-1.4%
O=C(CSc1nnnn1C1CCCCC1)Nc1cccc(NC(=O)c2ccco2)c1	-23.1%	-28.2%
CCOc1ccc(N(CC(=O)Nc2ccccc2CC)S(=O)(=O)c2c(C)noc2C)cc1	?	-28.4%
